B2AR ag = human beta-2 adrenergic receptor agonism by FAP | Am2.2-beta2AR cells, FAP receptor internalization, flow cytometry; reference of the scale not given here | response, % (concentration not given with the values) | P07550 | hit rate 0.43% among 340,000 | AID 504454;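 active means response above a set limit, near 3 SD of response in nonfluorescent compounds, cut at about 42% in these data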;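 further: stock transfer was 100 nL into about 11 µL; a reference agonist was the positive control; negative values mostly stem from fluorescent compounds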
Target sequence (P07550 whole entry, looked up): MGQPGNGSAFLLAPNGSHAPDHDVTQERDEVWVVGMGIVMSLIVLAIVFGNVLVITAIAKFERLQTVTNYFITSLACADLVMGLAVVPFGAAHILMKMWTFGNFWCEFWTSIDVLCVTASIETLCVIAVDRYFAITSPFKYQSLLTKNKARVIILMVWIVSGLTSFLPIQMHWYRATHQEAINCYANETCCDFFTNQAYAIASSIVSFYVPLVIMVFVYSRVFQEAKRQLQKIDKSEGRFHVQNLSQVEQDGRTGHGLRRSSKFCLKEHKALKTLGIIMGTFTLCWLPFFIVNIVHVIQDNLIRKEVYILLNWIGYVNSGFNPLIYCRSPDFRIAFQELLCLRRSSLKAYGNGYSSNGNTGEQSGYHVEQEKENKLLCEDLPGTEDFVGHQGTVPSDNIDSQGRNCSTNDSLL
LANA-H2B inh = blocks KSHV LANA binding to histone H2A/H2B; AID 2629; inhibition, % (no concentration beside the values); Q9QR71; hit rate 0.6% among 320,000; cell-free LANA-H2A/H2B peptide, fluorescence polarization; in the data active means inhibition mostly above about 10%, no sharp cut-off; inactive means mostly below about 6.7%;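 further: stock transfer was 7.5 nL into about 10 µL; 0% = median of vehicle wells and 100% = median of positive control wells; one replicate is shown; the record names a cut of 25% in any replicate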
Beta cell apopt = blocks beta cell apoptosis; INS-1E cytokine-induced death, ATP luminescence, 48 h; percent of positive-control rescue, neutral wells zero; protection from apoptosis, % (test concentration not listed); hit rate 0.8% among 300,000;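 active means all replicates at 75% or more, or half of them and the mean; inconclusive means half reach 75% but not the mean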;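 further: 0% = cytokine-treated negative control wells and 100% = positive control rescue; higher means more ATP so stronger rescue from cytokine killing; wells of about 40 µL received 100 nL stock; the first replicate is given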
Calb FLC = affects C. albicans growth with fluconazole | C. albicans CaCi-2 (fluconazole-resistant clinical isolate) + fluconazole, Alamar Blue growth, 48 h | growth inhibition, % (concentration not given with the values) | hit rate 0.57% among 300,000;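 active means most replicates above 75%; inconclusive means exactly half above 75%; inactive means most below 75%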;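 further: all wells also contain fluconazole at 8 µg/ml as a sub-toxic cotreatment; 0% = median of DMSO wells and 100% = median of geldanamycin control wells; wells of about 8 µL received 7.5 nL stock; the first replicate is given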
Bfl-1 A1 inh = inhibitors of the anti-apoptotic protein A1, read as caspase activation; MEF A1-2A-BIM cells, Caspase-Glo 3/7 luminescence, 3 h; percent of clofoctol response, vehicle zero; caspase activation, % (no concentration beside the values); hit rate 0.066% among 330,000;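 active means over half of replicate activation scores above 10%, or exactly half above 10 with the replicate mean above 10; inconclusive means replicate mean below 10 yet half the replicates above 10; inactive means over half of replicates below 10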;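 further: wells of about 30 µL received 50 nL stock; many hits fall short of the cut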
UCH37 inh = human UCH37 deubiquitinating enzyme inhibition; inhibition, % (no concentration beside the values); Q9Y5K5; purified proteasome/UCH37, Ub-AMC cleavage fluorescence; AID 588478; hit rate 0.33% among 330,000;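 active means mean of two replicates above 20%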;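 further: 0% = compound-free wells with enzyme and 100% = wells lacking proteasome; stock transfer was 100 nL into about 20 µL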
Target sequence (Q9Y5K5 whole entry, looked up): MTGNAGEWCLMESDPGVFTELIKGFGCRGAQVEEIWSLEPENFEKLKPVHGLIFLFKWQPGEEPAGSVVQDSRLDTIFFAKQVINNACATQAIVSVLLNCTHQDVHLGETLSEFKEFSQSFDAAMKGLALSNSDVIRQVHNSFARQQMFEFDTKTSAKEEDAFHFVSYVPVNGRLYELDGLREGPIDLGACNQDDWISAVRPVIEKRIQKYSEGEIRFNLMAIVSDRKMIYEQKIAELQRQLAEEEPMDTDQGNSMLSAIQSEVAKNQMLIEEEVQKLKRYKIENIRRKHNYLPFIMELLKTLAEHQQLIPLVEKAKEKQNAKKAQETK
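system = Proteasome-associated human UCH37 deubiquitinase | amount = 0.15 nM proteasome as dispensed | medium = pH 7.4 Tris-HCl (50 mM) with ovalbumin, ATP-MgCl2, DTT | incubation = 30 min preincubation with enzyme, 25 min cleavage at room temperature | detection = AMC fluorescence 355/460 nm | read-out basis = percent inhibition | controls = no-proteasome and no-compound wells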
RanGTP-Impb inh = disruptors of Ran-importin-beta complex formation – biochemical, FRET, CFP-Ran, YFP-importin-beta, homogeneous, primary screen; inhibition, % (concentration not given with the values); hit rate 1.1% among 300,000; cell-free CFP-Ran/YFP-importin-beta FRET ratio;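 active means most replicates above 15%; inconclusive means exactly half above 15%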;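 further: 0% = DMSO wells and 100% = Ran loaded with GDP instead of GTP; wells of about 40 µL received 100 nL stock; the first replicate is given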
T cruzi inh = T. cruzi replication inhibition | T. cruzi beta-gal in NIH3T3, luminescence, 90 h | inhibition, % (no concentration beside the values) | hit rate 1.4% among 300,000 | AID 1885;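 active means mean inhibition across valid replicates above about 55%, limit read from the data; inconclusive means mean below that limit but half or more replicates reach it; inactive means mean below it, under half of replicates reach it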;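 further: signal also drops with host cell toxicity which is not excluded here; 0% = plate median of DMSO wells and 100% = zero luminescence signal; higher percent means less beta-gal luminescence so fewer parasites; stock transfer was 50 nL into about 50 µL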
The depositor's hits bear a star.

Screening CN(CCOc1ccccc1)C(=O)c1ccc(F)c(S(=O)(=O)N2CCOCC2)c1 returned B2AR ag 3.9, LANA-H2B inh 2.1, Beta cell apopt 8.1, Calb FLC -5.0, Bfl-1 A1 inh -0.3, UCH37 inh 0.3, RanGTP-Impb inh 2.3 and T cruzi inh 0.8.
Screening CC(C)c1ccc(NC(=O)C2CSC3(C)CCC(=O)N23)cc1 (configuration not stated) returned B2AR ag 1.1, LANA-H2B inh -4.9, Beta cell apopt 2.0, Calb FLC -0.3, Bfl-1 A1 inh 1.2, UCH37 inh 3.0, RanGTP-Impb inh 3.9 and T cruzi inh 16.8.
O=C1CCCN1c1ccc(S(=O)(=O)Oc2ccc(Cl)cc2)cc1[N+](=O)[O-] was read as B2AR ag -2.8, LANA-H2B inh -1.8, Beta cell apopt 5.2, Calb FLC 2.0, Bfl-1 A1 inh 0.0, UCH37 inh 0.3, RanGTP-Impb inh 4.0 and T cruzi inh -15.0.
Screening CCCn1nc(C(=O)Nc2nnc(CC)s2)c2ccccc2c1=O returned B2AR ag -8.0, LANA-H2B inh -2.9, Beta cell apopt -2.3, Calb FLC 1.4, Bfl-1 A1 inh -0.6, UCH37 inh 1.6, RanGTP-Impb inh -3.6 and T cruzi inh 2.2.
CN1/C(=C\C(=O)c2cccnc2)C(C)(C)c2ccccc21 was read as B2AR ag -0.9, LANA-H2B inh 3.5, Beta cell apopt -8.4, Calb FLC 8.0, Bfl-1 A1 inh 1.0, UCH37 inh 0.4, RanGTP-Impb inh -2.1 and T cruzi inh 6.2.
`CC(NC(=O)Cc1ccccc1[N+](=O)[O-])c1ccccc1` (configuration not stated) gave LANA-H2B inh 3.2, Beta cell apopt -8.8, Calb FLC -16.3, Bfl-1 A1 inh 0.2, UCH37 inh 3.9, RanGTP-Impb inh 4.8 and T cruzi inh -18.4.
Cc1cc(N2CCN(C(=O)c3ccco3)CC2)c2ccccc2n1 was read as B2AR ag -4.0, LANA-H2B inh 1.4, Beta cell apopt 2.2, Calb FLC 2.3, Bfl-1 A1 inh 0.5, UCH37 inh 8.5, RanGTP-Impb inh 1.9 and T cruzi inh -7.3.
For Cc1ccccc1C(=O)N1CCc2c([nH]c3ccccc23)C1C(F)(F)F (configuration not stated) the results were B2AR ag -7.1, LANA-H2B inh -6.4, Beta cell apopt -3.5, Calb FLC -4.2, Bfl-1 A1 inh 0.6, UCH37 inh 4.0, RanGTP-Impb inh -0.4 and T cruzi inh 23.4.
For C/C(=N/NC(=O)c1ccc(Br)o1)c1ccncc1 the results were B2AR ag -2.3, LANA-H2B inh -1.7, Beta cell apopt -0.4, Calb FLC -3.1, Bfl-1 A1 inh -1.0, RanGTP-Impb inh -0.1 and T cruzi inh -9.9.
For CC1=CCC(COC(=O)Nc2ccccc2)CC1 (configuration not stated) the results were B2AR ag -5.6, LANA-H2B inh -4.5, Beta cell apopt 1.6, Calb FLC -22.0, Bfl-1 A1 inh -9.6, UCH37 inh 2.9, RanGTP-Impb inh 8.1 and T cruzi inh 3.2.
O=C(O)C(Cc1ccccc1)n1c(=S)[nH]c2ccccc2c1=O (configuration not stated) was read as B2AR ag 0.9, LANA-H2B inh 0.7, Beta cell apopt 1.2, Calb FLC -3.7, Bfl-1 A1 inh -0.4, UCH37 inh 2.5, RanGTP-Impb inh -2.1 and T cruzi inh -7.6.
O=C(c1ccc(Br)o1)N1CCN(CCc2ccncc2)CC1 was read as B2AR ag -5.2, LANA-H2B inh 3.7, Beta cell apopt 3.2, Calb FLC 1.4, Bfl-1 A1 inh inconclusive, UCH37 inh 2.1, RanGTP-Impb inh -4.6 and T cruzi inh 0.8.
For O=C(CCc1nc2ccccc2c(=O)[nH]1)NNC(=O)COc1cccc(F)c1 the results were B2AR ag -1.2, LANA-H2B inh 2.2, Beta cell apopt -1.3, Bfl-1 A1 inh 0.2 and UCH37 inh 2.9.
For CCCCC(O)(c1ccc(CC)cc1)C(CN1CCOCC1)c1ccccc1 (configuration not stated) the results were B2AR ag 4.4, LANA-H2B inh -9.5, Beta cell apopt 11.5, Calb FLC 3.0, Bfl-1 A1 inh -0.6, UCH37 inh 2.1, RanGTP-Impb inh 3.0 and T cruzi inh -1.1.
`O=C(NCc1ccc(Cl)cc1)N1CCN(Cc2ccccc2)CC1` gave B2AR ag -1.4, LANA-H2B inh 4.3, Beta cell apopt 48.8, Calb FLC 11.5, Bfl-1 A1 inh -0.3, UCH37 inh 0.4, RanGTP-Impb inh -0.6 and T cruzi inh -33.4.
NC(=O)Cn1nc([N+](=O)[O-])nc1Oc1ccc(Br)cc1 was read as B2AR ag -6.7, LANA-H2B inh -1.9, Beta cell apopt -2.0, Calb FLC 17.3, Bfl-1 A1 inh -0.2, UCH37 inh 2.1, RanGTP-Impb inh -4.4 and T cruzi inh 88.1*.
Screening N#CCCN(C(=O)COC(=O)c1cccc(S(=O)(=O)N2CCCC2)c1)c1ccc(F)cc1 returned B2AR ag -8.7, LANA-H2B inh 0.5, Beta cell apopt -1.1, Calb FLC -6.7, Bfl-1 A1 inh 0.0, UCH37 inh -0.7, RanGTP-Impb inh -1.0 and T cruzi inh -17.2.
Screening CCOC(=O)C1=C(C)N(c2ccc(OCC)cc2)C(=O)/C1=C\c1ccco1 returned B2AR ag -3.2, LANA-H2B inh 1.3, Beta cell apopt -1.1, Calb FLC 12.5, Bfl-1 A1 inh 0.3, UCH37 inh 4.6, RanGTP-Impb inh -0.7 and T cruzi inh 35.8.
`C/C=C(\C)CN1CCC(n2nccc2NC(=O)c2ccc3c(c2)OCO3)CC1` gave B2AR ag -1.9, LANA-H2B inh 74.7*, Beta cell apopt 5.6, Calb FLC -12.1, Bfl-1 A1 inh -0.4, UCH37 inh 2.1, RanGTP-Impb inh 3.3 and T cruzi inh 35.7.
Screening COCC(=O)N(Cc1cc2ccc(C)cc2[nH]c1=O)c1cccc(C)c1 returned B2AR ag -4.2, LANA-H2B inh 9.7, Beta cell apopt -5.1, Calb FLC -0.9, Bfl-1 A1 inh 2.6, UCH37 inh -3.1, RanGTP-Impb inh -1.6 and T cruzi inh -4.9.
Screening S=C(NC1CCCCC1)N1CCOCC1 returned B2AR ag -1.5, LANA-H2B inh -2.2, Beta cell apopt -5.8, Calb FLC 0.4, Bfl-1 A1 inh 0.9, UCH37 inh 1.2, RanGTP-Impb inh 1.0 and T cruzi inh -11.3.
Screening COC(=O)CCC(NC(=O)c1cc(-c2ccc3c(c2)OCCO3)oc1C)C(=O)OC (configuration not stated) returned B2AR ag 2.7, LANA-H2B inh -0.1, Calb FLC -8.0, Bfl-1 A1 inh 1.0, UCH37 inh -0.6, RanGTP-Impb inh -0.9 and T cruzi inh -16.8.
For Cn1c2ccccc2n2c(=O)c(=O)n(CC(=O)c3ccc(Cl)cc3)nc12 the results were B2AR ag -2.4, LANA-H2B inh 2.1, Beta cell apopt -17.6, Calb FLC 1.8, Bfl-1 A1 inh 0.6, UCH37 inh 1.8, RanGTP-Impb inh inconclusive and T cruzi inh -18.5.
For CCC(=O)N1c2ccc(S(=O)(=O)CCC(=O)NCc3ccc4c(c3)OCO4)cc2CC1C (configuration not stated) the results were B2AR ag 0.5, LANA-H2B inh 2.6, Beta cell apopt -6.1, Calb FLC 5.5, Bfl-1 A1 inh 0.6, UCH37 inh 3.8, RanGTP-Impb inh -2.3 and T cruzi inh 0.7.
For CC(=O)Nc1ccc(S(=O)(=O)NNC(=O)c2cccc(Cl)c2)cc1 the results were B2AR ag -2.0, LANA-H2B inh -0.5, Beta cell apopt -6.1, Calb FLC 16.9, Bfl-1 A1 inh -0.1, UCH37 inh 5.0, RanGTP-Impb inh 3.5 and T cruzi inh -11.0.
COc1ccc(NC(=O)CN2C(=O)NC3(CCCCCC3)C2=O)cc1Cl was read as B2AR ag 8.4, LANA-H2B inh 2.7, Beta cell apopt -9.2, Bfl-1 A1 inh 0.5 and UCH37 inh 2.3.
O=C(Nc1ccc(S(=O)(=O)Nc2ncccn2)cc1)c1cccc(S(=O)(=O)N2CCOCC2)c1 was read as B2AR ag 3.0, LANA-H2B inh 1.5, Beta cell apopt 7.3, Calb FLC 1.4, Bfl-1 A1 inh 0.6, UCH37 inh 2.5, RanGTP-Impb inh 3.1 and T cruzi inh -6.0.
`CCO[C@@H]1OC(C(N)=O)=C[C@H](c2ccc3c(c2)OCO3)[C@H]1CCCO` gave B2AR ag -7.3, LANA-H2B inh 1.4, Beta cell apopt -0.3, Calb FLC 2.3, Bfl-1 A1 inh 1.0, UCH37 inh -1.8, RanGTP-Impb inh 4.8 and T cruzi inh -12.7.
For O=C(NCc1ccccc1Cl)/C(=C\c1cccnc1)NC(=O)c1ccccc1 the results were B2AR ag -2.9, LANA-H2B inh -3.2, Beta cell apopt 0.5, Calb FLC -1.6, Bfl-1 A1 inh -0.5, UCH37 inh 5.1, RanGTP-Impb inh 4.8 and T cruzi inh 4.2.
`CN(C(=O)c1cc2nc(-c3ccco3)cc(C(F)(F)F)n2n1)C1CCCCC1` gave B2AR ag -17.7, LANA-H2B inh 1.9, Beta cell apopt -7.1, Calb FLC 0.9, Bfl-1 A1 inh -0.4, UCH37 inh -79.0, RanGTP-Impb inh -1.1 and T cruzi inh -4.5.
CCNC(=O)N(C)C[C@H]1N[C@@](C)(C(=O)OC)[C@H]2C(=O)N(C)C(=O)[C@@H]12 was read as B2AR ag -1.5, LANA-H2B inh -7.1, Beta cell apopt -9.2, Bfl-1 A1 inh -0.2 and UCH37 inh 4.3.
For CC(C)(C)C(=O)OCC1OC(n2cnc(C(N)=O)n2)C(O)C1O (configuration not stated) the results were B2AR ag -0.8, LANA-H2B inh -2.6, Beta cell apopt 7.3, Calb FLC 0.3, Bfl-1 A1 inh -0.4, UCH37 inh 6.0, RanGTP-Impb inh -1.8 and T cruzi inh -6.0.
Screening O=C(NCC(c1ccco1)N1CCc2ccccc21)c1ccccc1 (configuration not stated) returned B2AR ag -0.4, LANA-H2B inh 3.1, Beta cell apopt 3.4, Calb FLC 0.4, Bfl-1 A1 inh 0.7, UCH37 inh 4.9, RanGTP-Impb inh -6.8 and T cruzi inh 5.2.
For CC(Nc1n[nH]c(=O)[nH]c1=O)C(=O)N/N=C/c1ccccc1 (configuration not stated) the results were B2AR ag 3.3, LANA-H2B inh 3.7, Beta cell apopt -5.8, Calb FLC -17.9, Bfl-1 A1 inh -2.8, RanGTP-Impb inh -1.2 and T cruzi inh -7.7.
`CC12CN3CCN(CC(C3)/C1=N/N=C/c1cccc([N+](=O)[O-])c1)C2` gave B2AR ag -3.7, LANA-H2B inh -2.7, Beta cell apopt -1.5, Calb FLC 14.3, Bfl-1 A1 inh 0.1, RanGTP-Impb inh 4.0 and T cruzi inh 5.2.
`O=C(CCC(=O)OCc1ccc(Cl)cc1)Nc1ccccc1` gave B2AR ag -0.5, LANA-H2B inh 3.8, Beta cell apopt -4.0, Calb FLC -6.4, Bfl-1 A1 inh 0.1, UCH37 inh -0.1, RanGTP-Impb inh inconclusive and T cruzi inh 3.8.
Screening Cc1cc(N2CCCC2=O)ccc1S(=O)(=O)NCCOc1ccccc1 returned B2AR ag 0.1, LANA-H2B inh 1.6, Beta cell apopt 12.2, Calb FLC -9.7, Bfl-1 A1 inh 0.4, UCH37 inh 4.2, RanGTP-Impb inh 2.2 and T cruzi inh 3.9.
COc1ccc(/C=C(/NC(=O)c2ccccc2)C(=O)NCCN2CCOCC2)cc1OC was read as B2AR ag -5.2, LANA-H2B inh 3.1, Beta cell apopt -5.0, Calb FLC 3.5, Bfl-1 A1 inh 0.3, UCH37 inh 8.2, RanGTP-Impb inh 3.2 and T cruzi inh -7.9.
